# Compound activity deposited in PubChem BioAssay by Johns Hopkins Ion Channel Center.
# KCNQ2 block: KCNQ2 potassium channel inhibitors, primary screen, cell-based, CHO-K1, FluxOR thallium flux, B-score (AID 2156); 20 min; hits give low values; only compounds with negative scores are shown here; some inactives read as strong as hits; B-score at 10 µM; 1.1% of 310,000 active;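 active = fluorescence ratio B-score at most minus 3 library SDs, with starting brightness B-score within 2 library SDs, cut at about -5.5 in these data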
# Target sequence (O88943 whole entry, looked up): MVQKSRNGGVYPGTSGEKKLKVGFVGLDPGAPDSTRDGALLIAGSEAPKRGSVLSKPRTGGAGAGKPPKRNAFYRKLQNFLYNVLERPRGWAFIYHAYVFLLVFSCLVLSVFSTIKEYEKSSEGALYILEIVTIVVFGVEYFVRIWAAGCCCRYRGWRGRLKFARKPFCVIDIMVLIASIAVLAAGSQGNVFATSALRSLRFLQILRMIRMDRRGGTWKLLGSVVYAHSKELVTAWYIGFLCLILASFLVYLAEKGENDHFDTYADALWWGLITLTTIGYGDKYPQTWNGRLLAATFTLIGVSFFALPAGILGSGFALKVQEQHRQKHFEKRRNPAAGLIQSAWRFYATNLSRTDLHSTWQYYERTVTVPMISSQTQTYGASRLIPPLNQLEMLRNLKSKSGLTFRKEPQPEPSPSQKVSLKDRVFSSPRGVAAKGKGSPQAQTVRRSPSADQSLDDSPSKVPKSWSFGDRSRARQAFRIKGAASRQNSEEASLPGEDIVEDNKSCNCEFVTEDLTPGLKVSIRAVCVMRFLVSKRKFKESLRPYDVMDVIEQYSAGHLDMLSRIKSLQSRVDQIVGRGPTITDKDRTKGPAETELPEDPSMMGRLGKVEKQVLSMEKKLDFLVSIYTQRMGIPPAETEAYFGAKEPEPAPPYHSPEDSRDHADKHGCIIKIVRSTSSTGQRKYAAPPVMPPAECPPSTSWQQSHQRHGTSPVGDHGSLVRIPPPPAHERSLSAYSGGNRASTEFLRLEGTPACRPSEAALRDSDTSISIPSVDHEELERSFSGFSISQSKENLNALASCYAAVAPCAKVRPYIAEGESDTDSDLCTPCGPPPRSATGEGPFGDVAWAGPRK
# KCNQ2 block baseline: recorded beside KCNQ2 block, whose call it bears; B-score; measured here: initial fluorescence intensity artifact check;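 brightness before thallium and not channel activity; 0 = typical well and far values either way flag optical interference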
# * = called active by the depositor; i = inactive.
item | Structure | KCNQ2 block baseline | KCNQ2 block
1 | CCC(Sc1n[nH]c(=O)[nH]c1=O)C(=O)OCc1ccccc1 (configuration not stated) | 2.2 | i
2 | CC(c1n[nH]c(=S)n1Cc1ccccc1)N(C)C (configuration not stated) | -0.28 | i
3 | O=C(N1CCCCC1)N1CCN(C(c2ccccc2)c2ccccc2)CC1 | 0.14 | i
4 | C=Cn1cc[n+](CC(=O)C(C)(C)C)c1 | -1.7 | i
5 | N#Cc1nc(COc2ccc(F)cc2)oc1NCCCn1ccnc1 | 0.18 | i
6 | c1ccc(-c2c[n+]3c(n2-c2ccccc2)CCC3)cc1 | 3.6 | i
7 | NC(=O)CC(NC(=O)c1cccc(Br)c1)c1ccc(N2CCC(Br)CC2)c([N+](=O)[O-])c1 (configuration not stated) | -3.2 | i
8 | C=CCn1nc([N+](=O)[O-])nc1Sc1cccc2cccnc12 | -0.12 | i
9 | COc1ccccc1C1(O)C(=O)Nc2ccccc21 (configuration not stated) | -2.2 | i
10 | CCOc1cc(Br)c(C(C)NC(=O)c2cccnc2)cc1OCC (configuration not stated) | -1.1 | i
11 | Cc1ccc(N2CCN(C(=O)c3ccccc3Br)CC2)c(C)c1 | -0.63 | i
12 | CCOC(=O)c1oc2nc(CC(C)C)c3c(c2c1N)CCC3 | 0.02 | i
13 | COc1ccc(C2C(O)C(c3c[nH]c4ccccc34)=NN2C(=O)CCl)cc1 (configuration not stated) | -0.96 | i
14 | COc1ccc(C2OC34CCCCC3C(C#N)(C#N)C2(C#N)C(=N)O4)cc1 (configuration not stated) | 8.7 | i
15 | CS(=O)(=O)Nc1cccc(C(=O)CC2(O)C(=O)Nc3ccc(Br)cc32)c1 (configuration not stated) | 0.76 | i
16 | O=c1[nH]cnc2c1C(c1ccc(Cl)cc1)c1c(nc[nH]c1=O)O2 | 0.18 | i
17 | Cc1ccc(S(=O)(=O)CCC(=O)OCC(=O)c2c(C)[nH]c3ccccc23)cc1 | 1.2 | i
18 | Cc1ccc(/C=C2/SC(=Nc3ccc(F)cc3)NC2=O)s1 | -1.7 | i
19 | O=C(CN1C(=O)c2ccccc2C1=O)Nc1cc([N+](=O)[O-])ccc1O | 1.3 | i
20 | COc1ccc(OC)c(Cc2nnc(CCC(=O)NC(C3CC3)C3CC3)o2)c1 | -1.5 | i
21 | Cc1ccc(S(=O)(=O)NCC2CCC(C(=O)NCc3ccc4c(c3)OCO4)CC2)cc1 (configuration not stated) | -0.94 | i
22 | O=C(NCCCN1CCOCC1)c1ccc(CS(=O)(=O)c2cccc(C(F)(F)F)c2)o1 | -0.68 | i
23 | COCCNC(=O)/C(C#N)=C/c1ccc(N2CCOCC2)o1 | 12 | i
24 | Cc1nn(Cc2ccccc2)c(C)c1C(=O)OCC(=O)c1cc(C)n(C2CC2)c1C | -0.84 | i
25 | CCOc1ccc(N2C(=O)CC(NCc3ccc(S(N)(=O)=O)cc3)C2=O)cc1 (configuration not stated) | -0.81 | i
26 | O=C(CCSCc1ccccc1Cl)N1CCN(c2cccc(Cl)c2)CC1 | -0.12 | i
27 | COc1ccc2c(c1)C1NC(=S)NC(C)(O2)C1C(=O)Nc1ccccc1C (configuration not stated) | -0.36 | i
28 | O=C(CSc1ccc2nnc(-c3ccc(Cl)cc3)n2n1)N1CCCC1 | -1.4 | i
29 | Cn1sc(NC(=O)c2ccccc2Cl)nc1=O | 3.4 | i
30 | Cc1ccc2c(c1)cc1c(=O)n(CC(=O)NCc3ccccn3)nc(C)n12 | 1.5 | i
31 | CCN1CCN(C(=O)c2cc3ccc(OC)cc3[nH]2)CC1 | 2.5 | i
32 | O=S1(=O)C=C(N2CCCCC2)c2ccccc21 | 0.26 | i
33 | COc1ccc(NC(=S)Nc2cccc(C)n2)cc1 | -2 | i
34 | COc1ccc2[nH]c(=O)c(CN(Cc3cccs3)S(=O)(=O)c3cccc4nsnc34)cc2c1 | -1.2 | i
35 | CCn1c(SCC(=O)NCc2cccs2)nnc1-c1ccncc1 | -0.34 | i
36 | CC(C)Cn1c(-c2ccccc2)nc2ccccc2c1=O | -0.99 | i
37 | CN(C)CCNC(=O)C(=O)Nc1cc2c3c(c1)CCN3C(=O)CC2 | 0.05 | i
38 | O=C(NCc1ccccc1F)C1CCCN1S(=O)(=O)c1ccc(Cl)cc1 (configuration not stated) | -1.5 | i
39 | CCN(CC1COc2ccccc2O1)C(=O)c1ccc(Cl)c(S(=O)(=O)N2CC(C)OC(C)C2)c1 (configuration not stated) | 1.5 | i
40 | COc1ccc(NC(=S)Nc2cccc([N+](=O)[O-])c2)cc1 | 0.39 | i
41 | COc1ccc(Cl)cc1NC(=O)c1ccoc1C | -1 | i
42 | Cc1cc(=O)nc2c3ccccc3n(CC(=O)Nc3ccccc3Br)n12 | -1.9 | i
43 | CCCCn1c(N)c(N(Cc2ccccc2OC)C(=O)C(C)Oc2ccc(Cl)cc2)c(=O)[nH]c1=O (configuration not stated) | 0.01 | i
44 | CCOC(=O)CSc1nc(N2CCOCC2)c2c(c1C#N)CC(C)(C)N(C)C2 | 0.02 | i
45 | O=C(NCc1ccc(N2CCCC2=O)cc1)Nc1cccc2ccccc12 | 1 | i
46 | NC(=O)C(NC(=O)OCc1ccccc1)c1ccccc1 (configuration not stated) | -0.06 | i
47 | Cc1cccc(C)c1-n1c(=O)n(Cc2ccccc2)c(=O)c2[nH]cnc21 | -0.29 | i
48 | Cc1cc(C(=O)N/N=C/c2ccccc2)c(C)o1 | 2 | i
49 | COc1ccc(C)cc1S(=O)(=O)NCC(c1ccc2c(c1)OCO2)N1CCN(C)CC1 (configuration not stated) | 0.26 | i
50 | CC(C)N(C)C(=O)C(=O)c1cccn1-c1cccc(Cl)c1C#N | 2.9 | i
51 | CSc1ccc(C(C(C(=O)c2cccs2)N2CCOCC2)N2CCOCC2)cc1 (configuration not stated) | 1.2 | i
52 | O=C(Cn1nc(-c2ccc(Cl)cc2)ccc1=O)NCCN1CCOCC1 | 2.6 | i
53 | CCOC(=O)c1cc(C(=O)c2cccs2)n2ccc(C(C)=O)cc12 | -0.61 | i
54 | CN(C)/C=C1/Nc2ccccc2C1=O | -0.55 | i
55 | COc1ccc(OC)c(C2=NOC(C(=O)Nc3ccc4c(c3)OCCO4)C2)c1 (configuration not stated) | 0.08 | i
56 | CS(=O)(=O)n1nc(-c2ccco2)nc1N | -0.26 | i
57 | CCOC(=O)c1ccc(CN2C(=O)c3ccccc3S2(=O)=O)cc1 | 1 | i
58 | C=C(C)COc1ccc(-c2nc(N)nc(C)c2Oc2ccccc2OC)c(O)c1 | -0.51 | i
59 | N#Cc1ccc(NC(=O)COC(=O)CNC(=O)C2CCCCC2)cc1 | -0.54 | i
60 | COc1ccc(N(C(=O)c2cc3ccccc3oc2=O)C2C=CS(=O)(=O)C2)cc1 (configuration not stated) | 0.26 | i

# Remaining list, next part.
item | Structure | KCNQ2 block baseline | KCNQ2 block
61 | Cc1cccc(OC(C)C(=O)Nc2ccc(N3CCCCC3)cc2)c1 (configuration not stated) | 0.9 | i
62 | COc1cc(C(=O)NCC(=O)NC(C)c2ccc(-n3ccnc3)cc2)cc(OC)c1OC (configuration not stated) | 0.2 | i
63 | C=CCn1c(O)c(N=NC(=O)c2ccccc2NS(=O)(=O)c2cccs2)c2ccccc21 | -1.5 | i
64 | CSc1ccc(/C=c2\s/c(=C\C(=O)C(C)(C)C)n(CC(=O)NCCC3=CCCCC3)c2=O)cc1 | 0.97 | i
65 | CCOC(=O)c1ccccc1NS(=O)(=O)c1ccc(OCC)cc1 | 1 | i
66 | CCOc1ccc(CCN2C(=O)c3ccc(C(=O)O)cc3C2=O)cc1OCC | -2 | i
67 | COc1cc(-c2cc(C(=O)NCc3ccco3)c3ccccc3n2)cc(OC)c1OC | -0.85 | i
68 | CN(CCc1ccccn1)C(=O)c1cccnc1Oc1ccc(Cl)cc1 | 0.51 | i
69 | COc1cc(Cl)c(C)cc1NC(C)C(=O)Nc1cc(C(F)(F)F)ccc1N1CCOCC1 (configuration not stated) | -4.5 | i
70 | COc1cc(-c2ccc(=O)[nH]n2)ccc1OC(F)F | -0.44 | i
71 | CC(C)(C)SCCNC(=O)c1ccc(CN2CCc3ccccc3C2)cc1 | 1.2 | i
72 | COCC1CCN(C(=O)C2CCC(=O)N(CC3CCCCC3)C2)CC1 (configuration not stated) | 0.32 | i
73 | N#Cc1nc(COc2ccc(Cl)cc2Cl)oc1N1CCN(c2ccccc2)CC1 | 0.02* | -7.7*
74 | CCC1CN(C(=O)N2CCC(C(=O)Nc3ccccc3F)CC2)c2ccccc2O1 (configuration not stated) | -0.01 | i
75 | N#C/C(=C/Nc1ccccc1C(=O)O)C(N)=O | 1.8 | i
76 | CCOc1ccc(-c2c(C(=O)N/N=C/c3cccs3)nnn2-c2nonc2N)cc1 | -0.14 | i
77 | COc1ccc(N=Nc2cnc(C)nc2-c2ccccc2)cc1 | 3 | i
78 | CCc1cccc(NC(=O)CCCN2C(=O)C(c3ccccc3)Oc3cccnc32)c1 (configuration not stated) | 0.2 | i
79 | C=CCN1C(=S)N[C@@H]2CS(=O)(=O)C[C@@H]21 | 0.29 | i
80 | CCCCCNC(=O)N[C@H](C(=O)O)C(C)C | 2.5 | i
81 | O=C(NC1CCCC1)C(c1ccco1)N(C(=O)c1ccco1)c1ccccc1 (configuration not stated) | 0.66 | i
82 | Cn1nc(Cc2cccc3ccccc23)c(C#N)c1N | 0.48 | i
83 | CCN(CC)S(=O)(=O)c1ccc(Cl)c(NC(=O)c2ccncc2)c1 | 0.38 | i
84 | COc1cc(OC)cc(N2C(=O)CC(N3CCC(C(=O)N4CCCCC4)CC3)C2=O)c1 (configuration not stated) | 1.2 | i
85 | C=CCn1c(CCNC(=O)c2ccc(Cl)c(Cl)c2)nnc1SCCOc1ccc(OC)cc1 | 1.1 | i
86 | Cc1occc1C(=O)Nc1c(F)c(F)c(F)c(F)c1F | -0.28 | i
87 | CN(C)C(=O)COC(=O)c1cccnc1Nc1ccccc1F | -0.33 | i
88 | COc1ccc(C(=O)NC2CCN(C(=S)Nc3cccc(C)c3C)CC2)cc1 | 0.1 | i
89 | O=C(NCc1nnc(SCC(=O)N2CCCCC2)o1)c1c(F)cccc1Cl | 1.9 | i
90 | CN(C)CCCN(C(=O)COc1ccc(Cl)cc1)c1nc2cc3c(cc2s1)OCO3 | 0.94 | i
91 | COC(=O)C1CCCCN1C(=O)c1cc(COc2cccc3cccnc23)on1 (configuration not stated) | 1.9 | i
92 | CCC(=O)c1ccc(OC(=O)c2cccs2)cc1 | 2.2 | i
93 | Clc1ccc(-c2nnc(Sc3nc4ccccc4o3)c3ccccc23)cc1 | -1.2 | i
94 | CN(C)CCCNc1ncnc2oc(-c3ccccc3)c(-c3ccccc3)c12 | -1.5 | i
95 | COc1ccc(CCC(=O)N2CCCC(Nc3ccc(OC)cc3)C2)cc1 (configuration not stated) | 1.6 | i
96 | C=CCNC(=S)N/N=C(\C)c1cccc(OC)c1 | -0.74 | i
97 | Cc1occc1-c1nnc(SCC(=O)Nc2ccccc2N2CCCCC2)n1C | -0.54 | i
98 | O=C(CN1C(=O)C(=O)N(Cc2ccco2)C1=O)c1c[nH]c2ccccc12 | 0.03 | i
99 | CCN(CC)CCNC(=O)C1(O)c2cc(Br)ccc2NC(=O)N1c1ccccc1 (configuration not stated) | 0.06 | i
100 | CCN1CCN(C(=O)c2ccc(Cl)c(S(=O)(=O)N3CCCCC3)c2)CC1 | 0.29 | i
101 | COc1ccccc1CNC(=O)CCCn1nc(C)c2c(C)n(-c3ccc(C)cc3)nc2c1=O | -0.36 | i
102 | Cc1cccc(N=N/C(=C\O)C(=O)c2cccs2)c1 | 0.05 | i
103 | CCOC(=O)c1c(S(=O)(=O)NCC(=O)Nc2ccccc2)c(C)n(C)c1C | -0.86 | i
104 | CNC(=O)c1ccsc1NC(=O)C1CCN(S(=O)(=O)c2cccs2)CC1 | 2.3 | i
105 | CC(CC(=O)NCC1CCCO1)c1ccccc1 (configuration not stated) | 1 | i
106 | CN1CCN(NC(=O)c2ccc(Cl)cc2Cl)CC1 | 0.06 | i
107 | Cc1ccc(O)c(-c2cc(C(=O)Nc3ccc(S(=O)(=O)N4CC(C)OC(C)C4)cc3)[nH]n2)c1 (configuration not stated) | 1.1 | i
108 | COC(=O)c1ccc(N)c(CS(=O)(=O)c2ccc(Cl)cc2)c1 | -0.89 | i
109 | CCOc1ccc(N2CC(C(=O)NCc3ccc(F)cc3)CC2=O)cc1 (configuration not stated) | 1.4 | i
110 | CC(NC(=O)C1CCC1)c1ccc2c(c1)OCO2 (configuration not stated) | 0.49 | i
111 | COc1ccc2ccccc2c1CNc1nnnn1C | 4.3 | i
112 | O=C(NCCSc1ncc(-c2ccc(F)cc2)[nH]1)c1ccc2c(c1)OCO2 | -0.64 | i
113 | C=CCSC1=N/C(=C\c2ccc(C)o2)C(=O)S1 | 0.75 | i
114 | O=C(NCCc1ccccc1)C(=O)NCC1OCCN1S(=O)(=O)c1cccs1 (configuration not stated) | 1.2 | i
115 | COc1ccc(Cc2nc3ccc(C(=O)N4CCCC4)cc3o2)cc1OC | -1.8 | i
116 | CCNc1nc(NCC)nc(Nn2cnnc2)n1 | 2 | i
117 | COc1ccc(CNC(=O)C2CCN(C(=O)c3ccc(-c4ccccc4)cc3)CC2)cc1 | -0.99 | i

# Some of the compounds tested, so the mix of outcomes need not match the whole.
